# Screening data as filed in PubChem.
# Rce1 inhib: yeast Rce1p protease inhibitors, primary screen, biochemical, fluorescence, cell-free homogeneous. yeast membranes, quenched prenylated peptide cleavage fluorescence. CAAX prenyl protease 2 (Saccharomyces cerevisiae (strain ATCC 204508 / S288c)), Q03530. hit rate 0.27% among 290,000. calls only. AID 2563, 2010;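 active means fall in fluorescence gain of 50% or more versus controls, with final raw signal at or below 3038400; inconclusive means same 50% fall but final raw signal above 3038400; inactive means fall in fluorescence gain under 50%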;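 further: plate controls were neutral control wells for no effect and wells lacking membranes for full effect; tested at 10 µM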
# Target sequence (Q03530 whole entry, looked up): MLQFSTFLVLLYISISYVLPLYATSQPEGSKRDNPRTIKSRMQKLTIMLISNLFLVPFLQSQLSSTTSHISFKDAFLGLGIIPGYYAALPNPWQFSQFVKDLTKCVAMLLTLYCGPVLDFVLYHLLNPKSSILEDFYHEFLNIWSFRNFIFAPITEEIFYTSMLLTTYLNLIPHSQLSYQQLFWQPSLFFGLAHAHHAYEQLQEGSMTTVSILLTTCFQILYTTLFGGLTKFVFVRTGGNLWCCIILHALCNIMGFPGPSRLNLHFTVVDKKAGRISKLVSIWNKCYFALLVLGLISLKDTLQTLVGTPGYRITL
# eIF4H inh: human eIF4H binding inhibitors, primary screen, translation initiation inhibitor project, biochemical, uHTS, fluorescence polarization | Eukaryotic translation initiation factor 4H (Homo sapiens), Q15056 | eIF4H fluorescence polarization binding assay | inhibition, % at 35 µM | hit rate 0.94% among 290,000 | AID 2012, 2009;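 active means 50% or more with normal probe brightness, or confirmed in later tests; inconclusive means above 50% with abnormal brightness, or retests that disagree; inactive means below 50% or failed in later tests; about a fifth of its hits are not listed in these tables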;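 further: calls also rest on retests at 20 µM and on dose response follow-up; 0% = protein and probe with vehicle and 100% = probe without protein; strong numbers were not always called active; many hits fall short of the cut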
# PABP FP inh: PABP poly(A) RNA binding inhibitors, primary screen, biochemical, fluorescence polarization, uHTS | Polyadenylate-binding protein 1 (Homo sapiens), P11940 | inhibition, % at 35 µM | hit rate 1% among 290,000 | AID 2014, 2009;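 active means 50% or more with normal probe brightness, or confirmed in later tests; inconclusive means above 50% with abnormal brightness, or retests that disagree; inactive means below 50% or failed in later tests; about a fifth of its hits are not listed in these tables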;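 further: calls also rest on retests at 20 µM and on dose response follow-up; controls were probe without protein and protein plus probe with vehicle; some compounds called inactive have numbers as strong as hits; many hits fall short of the cut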
# Target sequence (P11940 whole entry, looked up): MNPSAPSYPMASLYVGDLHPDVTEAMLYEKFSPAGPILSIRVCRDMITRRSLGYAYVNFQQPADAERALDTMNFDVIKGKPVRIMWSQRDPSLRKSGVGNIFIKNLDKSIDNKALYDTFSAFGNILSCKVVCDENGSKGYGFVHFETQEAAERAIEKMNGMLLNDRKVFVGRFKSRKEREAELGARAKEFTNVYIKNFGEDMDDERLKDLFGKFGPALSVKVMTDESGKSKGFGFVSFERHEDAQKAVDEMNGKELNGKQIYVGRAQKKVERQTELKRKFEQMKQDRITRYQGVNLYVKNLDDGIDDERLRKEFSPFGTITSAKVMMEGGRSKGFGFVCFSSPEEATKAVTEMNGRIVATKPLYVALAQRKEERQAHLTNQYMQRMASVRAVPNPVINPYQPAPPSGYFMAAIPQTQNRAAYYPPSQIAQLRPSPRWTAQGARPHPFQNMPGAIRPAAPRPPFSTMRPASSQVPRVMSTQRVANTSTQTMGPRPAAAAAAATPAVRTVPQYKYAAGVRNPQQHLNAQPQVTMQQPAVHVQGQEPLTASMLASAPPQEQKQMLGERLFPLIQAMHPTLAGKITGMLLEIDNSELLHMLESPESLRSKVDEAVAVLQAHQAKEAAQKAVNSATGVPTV
# Env fusion inh: inhibitors of HIV-1 Env-driven cell-cell fusion, primary screen, HeLa-JRFL effector, CEM21 target cells, luciferase | inhibition, % at 12.3 µM | hit rate 1.1% among 360,000 | AID 651610, 2012;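 active means mean replicate inhibition score of at least 50 and every replicate individually at or above 50; inconclusive means only one of the two criteria met; inactive means mean below 50 and not all replicates reaching 50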;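 further: 0% = plate neutral controls and 100% = maraviroc near 300 nM; one replicate is shown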
# MT1-MMP act inh: blockers of MT1-MMP proenzyme processing, primary screen, HT1080 RFP-PRO-GFP cells, GFP/RFP fluorescence; Matrix metalloproteinase-14 (Homo sapiens), P50281; GFP/RFP ratio fluorescence, overnight; percent of plate control window, DMSO zero; GFP/RFP ratio change, % at 20 µM; hit rate 0.061% among 360,000; AID 651647, 2012;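 active means GFP/RFP ratio change of at least 30% with cell ATP level not reduced by more than half and red fluorescence within 50% of control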; further: strong numbers were not always called active
#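 Material: RFP-PRO-GFP reporter HT1080 cells. Dosing: single-point 20 µM compound, 1% DMSO. Controls: DMSO and RFP-L50D-GFP cell wells. Timing: cells overnight before dosing, compound overnight, 37 °C, 5% CO2. Measure: GFP/RFP fluorescence ratio.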
# UUG fidelity: modulators of yeast start codon fidelity, primary screen, whole organism, S. cerevisiae, single point, plate reader; S. cerevisiae UUG-firefly luciferase reporter, luminescence/redox ratio; activity score, % at 18.7 µM; hit rate 0.13% among 350,000; AID 602363, 2012;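 active means replicate mean at a twofold rise or more, about +100% in these data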;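 further: firefly luciferase made from a UUG start codon reports start codon fidelity; reporter light over untreated wells divided by growth signal over untreated wells; some hits fall short of that in this replicate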
# CSC inhib: cancer stem cell viability inhibitors, primary screen, luminescence; inhibition, % at 7.5 µM; hit rate 1.1% among 300,000; cancer stem cell-like cells viability;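 active means mean at 75% or more and at least half the replicates too; inconclusive means mean and replicates disagree; tested in HMLE shEcad cells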;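 further: 0% = median of negative and 100% = median of positive control wells; the first replicate is given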
# eIF4H inh retest: recorded beside eIF4H inh, whose call it bears; inhibition, %; compound at 20 µM; confirmation average;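 mean of two retest wells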
# PABP FP inh retest: recorded beside PABP FP inh, whose call it bears; inhibition, %; compound at 20 µM; confirmation repeats;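 mean of two retest wells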
# MT1-MMP act inh RFP: recorded beside MT1-MMP act inh, whose call it bears; RFP signal change, %; measured here: RFP expression control read;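 0 = vehicle wells; hits needed this value within 50% of zero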
# Starred values were filed as active, the others as inactive; i = inactive; ? = inconclusive; · = not tested or not shown; & = joins results of further samples.
SMILES,Rce1 inhib,eIF4H inh,PABP FP inh,Env fusion inh,MT1-MMP act inh,MT1-MMP act inh RFP,UUG fidelity,CSC inhib,others
CCOC(=O)c1c(NC(=O)C2C3CCC(O3)C2C(=O)O)sc(C)c1-c1ccc(F)cc1 (stereo unspecified),i,6,2,·,0,0,·,-11,
COc1ccc(OC)c(Nc2nc(N)nc(CCl)n2)c1,i,-2,-9,5,-5,-9,-19,-3,
CN(C)/C=C/C(=O)c1ccn(S(=O)(=O)c2ccccc2)c1,i,-7,-5,12,-1,0,2,-14,
CCOC(=O)/C(C#N)=C/c1c(N2CCN(C)CC2)nc2ccccn2c1=O,i,0,-4,3,-8,-6,-13,-6,
Cn1cnnc1SC(C(=O)c1ccccc1)c1ccccc1 (stereo unspecified),·,-14,6,-5,-6,0,-28,0,
S=C1Nc2ccccc2Sc2ccc(Cl)cc21,i,-11,-19,·,6,5,-3,-14,
Cc1onc(-c2c(F)cccc2Cl)c1C(=O)NC1CC1,i,7,-1,0,2,4,-4,1,
Cc1nc2c(c(=O)n1CCC1=CCCCC1)c1nc3ccccc3nc1n2/N=C/c1ccccc1,i,-5,-2,·,0,6,·,-2,
CC(=O)O[C@@H]1C[C@H]2C(C)=C[C@H]3OC(=O)[C@@H](C)[C@H]3C[C@H]2[C@]1(C)O,i,-12,-11,-7,1,2,-22,-4,
CCOC(=O)Cc1csc(SCC(=O)N2CCN(c3ccc(OC)cc3)CC2)n1,i,9,1,14,-14,-14,-10,3,
COc1ccc(Cl)cc1C(Nc1cccnc1)c1ccc2cccnc2c1O (stereo unspecified),i,3,-3,-26,5,-6,·,3,
C/C(=N\NC(=O)Cn1nc(C)c([N+](=O)[O-])c1C)c1ccco1,i,-3,10,1,0,1,-15,-2,
O=C(COC(=O)c1ccccn1)c1ccc(Br)cc1,i,67,1,-45,-1,1,-31,-2,eIF4H inh retest=-8;PABP FP inh retest=3
CCOc1ccc(NC(=O)CSc2nc3ccccc3nc2N2CCCC2)cc1,i,6,-3,14,-2,-3,-15,-7,
CCc1ccccc1OCC(=O)Nc1ccc(N2CCCC2)cc1C,·,·,·,0,-37,-11,-4,·,
O=C(Nc1ccc(F)cc1)C(c1ccccc1)N1CCN(S(=O)(=O)c2ccc3ccccc3c2)CC1 (stereo unspecified),i,8,1,10,-12,-3,-1,-10,
Cc1ccc(C)c(NS(=O)(=O)c2ccc(NC(=O)CSc3ccc(Cl)cc3)cc2)c1,i,-6,-5,0,1,2,·,-3,
O=C(CCN1C(=O)C2C3CCC(C3)C2C1=O)OCC(=O)c1cccc([N+](=O)[O-])c1 (stereo unspecified),i,3,-2,25,-7,2,-13,6,
COc1ccc(-c2noc(-c3cc(C)cc(C)c3)n2)cc1OC,i,-5,1,-5,-1,-1,-21,-10,
COc1ccc(N=C2SC(C(=O)Nc3ccc4c(c3)OCO4)CC(=O)N2C)cc1 (stereo unspecified),i,-10,-2,·,1&0,0&-2,-8&-1,15,
O=C(CNCc1ccccc1Cl)Nc1ccc2c(c1)OCCO2,i,-9,0,-36,-1,-4,-14,4,
CC(=O)Nc1ccc(SC[C@H](Cc2ccccc2)N2CCN(CC(C)C)CCC2=O)cc1,i,10,-6,14,0,4,-12,-6,
COc1ccc(CC(=O)NNC(=O)c2ccco2)cc1,·,-6,-5,-6,0,4,-19,-13,
CC(Oc1ccc2oc(-c3ccccc3)c(C(=O)O)c2c1)C(=O)O (stereo unspecified),?,2,10,-58,5,3,7,0,
CC(C)(C)OC(=O)NCCCCCNC(=O)c1nc[nH]c1C(=O)N1CCN(c2ccccc2)CC1,·,·,·,2,6,-2,-10,·,
CCCC(=O)Nc1cc(Cl)ccc1N1CCN(C(=O)CC)CC1,i,-3,-2,·,1,-3,-3,2,
C[n+]1cc(-c2ccccc2)n2c1CCCCC2,i,6,65*,·,-14,-5,·,·,
COC(=O)c1c(C)[nH]c(C(=O)OCC(=O)c2c(N)n(CC(C)C)c(=O)n(C)c2=O)c1C,·,·,·,19,-2,-18,-1,-17,
CSc1ccccc1OCc1cc(C(=O)N2CCN(Cc3nccn3C)CC2)no1,i,0,-1,-1,1,2,-7,-2,
O=C(Nc1nnc(COc2ccc(Cl)cc2)s1)c1ccco1,i,-15,-1,-18,-1,3,·,12,
COC(=O)c1sccc1NC(=O)c1ccccc1Br,i,·,·,-12,3,2,·,0,
Cc1cccn2cc(CNC(=O)C3CCCCC3)nc12,i,3,22,·,2,5,-8,3,
O=C(CN1CCN(c2ccccn2)CC1)Nc1cc(F)ccc1F,i,14,8,-7,-1,-4,-7,-8,
N=c1ncn(Cc2ccccc2)c2nc(SCCOc3ccccc3)[nH]c12,i,-6,11,33,7,8,·,-1,
CC(C)N1C(=O)CCC1C(=O)N1CCCc2ccccc21 (stereo unspecified),i,-6,-4,-40,2,4,7,-7,
CCn1c2ccccc2c2cc(NC(=O)COC(=O)c3cc(S(N)(=O)=O)c(Cl)cc3Cl)ccc21,i,-3,-13,-42,6,1,·,-3,
CN(C)S(=O)(=O)c1cccc(NC(=O)c2cccc(N3C(=O)CCC3=O)c2)c1,·,·,·,-9,-1,-5,-6,·,
COc1ccc(S(=O)(=O)NC(=O)C2(C)CCN2C(=O)Cc2cccc3ccccc23)cc1 (stereo unspecified),·,·,·,-3,2,5,3,·,
Cc1sc(NC(=O)CN(CCc2ccccc2)C(=O)C2CC2)c(C(N)=O)c1C,i,-10,0,0,4,4,·,3,
CCOc1ccc(OCC(=O)c2c(O)c3ccccc3oc2=O)cc1,·,3,-8,·,-5,2,-10,9,
Cc1ccc(/C=C2\SC(=S)N(CCC(=O)NNS(=O)(=O)c3ccc(C)cc3)C2=O)cc1,i,-3,-9,5,0,-3,·,21,
COCCn1c(-c2ccccc2)nc(=S)c2c1CC(C)(C)OC2,i,-5,4,·,-1,3,-22,2,
O=C(c1ccco1)N1CCN(Cc2nc3cc(Cl)ccc3c(=O)[nH]2)CC1,i,-8,4,-11,-1,0,·,-3,
CN=C(NC#N)NCCSCc1nc[nH]c1C,i,1,5,·,0,4,-9,-6,
O=C(NCCN1CCN(c2cccc(Cl)c2)CC1)C1CCCN(S(=O)(=O)c2cnc[nH]2)C1 (stereo unspecified),·,-9,3,-14,-2,1,-6,-2,
CCCn1c(SCc2nc3sc(C)c(C)c3c(=O)[nH]2)nc2ccccc2c1=O,i,48,26,-55,-4,-2,-13,33,
Cc1ccc(CNC(=O)c2ccc3c(=O)n4c(-c5ccc(C)cc5)csc4nc3c2)cc1,i,8,-8,-27,6,-2,19,·,
CC(C)(C)c1cn(-c2ccccc2)c(=S)[nH]1,i,-9,-11,30,4,5,-18,-19,
CC(=O)c1cccc(NC(=O)c2ccc(S(=O)(=O)N3CCCCC3)cc2)c1,i,6,-2,·,-4,-7,-4,-11,
Brc1ccc(C2=Nn3c(nnc3-c3n[nH]c4c3CCC4)SC2)cc1,i,-4,1,·,18,7,-11,69,
C=CCOc1ccc(/C=C/C(=O)OCC(=O)NCc2cccc(OC)c2)cc1,·,·,·,0,1,0,-12,·,
O=C(O)c1ccccc1N/N=C/C1=C(N2CCOCC2)C(=C\c2ccccc2)/CC1,i,24,17,-11,-8,4,-21,5,
O=C(N1CCN(Cc2ccc3c(c2)OCO3)CC1)C12CC3CC(CC(C3)C1)C2,i,-2,22,47,·,·,·,33,
CC1C(=O)N(Cc2ccccc2F)c2ccccc2N1C(=O)c1c(F)cccc1F (stereo unspecified),i,-2,-2,13,-2,-18,5,7,
COc1ccc(CN(C)C(=S)Nc2ccc(Cl)cc2Cl)cc1,i,-3,-15,18,3,-3,·,8,
CCOC(=O)N1CCC(N2CCN(Cc3ccccc3)C(CCO)C2)CC1 (stereo unspecified),i,-2,10,-3,-1,2,-10,-5,
O=C(CCN1CCN(c2ccccc2)CC1)Nc1ccccc1F,i,-4,-6,-8,1,1,·,-18,
O=[N+]([O-])c1cccc(-c2ccc(C(=S)N3CCN(c4ccccc4)CC3)o2)c1,i,13,4,-10,2,1,-13,-4,
Cc1ccc(NC(=O)C2C3CCCC2C3c2ccccc2)cc1C (stereo unspecified),i,?,67*,·,-1,1,·,-9,
Cc1ccc(C)c(S(=O)(=O)NNC(=O)c2sc(NS(=O)(=O)c3ccccc3)nc2C)c1,i,-10,18,-3,4,3,-18,-4,
# Next section
SMILES,Rce1 inhib,eIF4H inh,PABP FP inh,Env fusion inh,MT1-MMP act inh,MT1-MMP act inh RFP,UUG fidelity,CSC inhib,others
O=C(COC(=O)c1cc(=O)[nH]c2ccccc12)NC1CCCCC1,·,·,·,6,6,5,-9,·,
CCC1CCCCN1CC(O)COCc1cccc(OC)c1 (stereo unspecified),i,2,-2,10,-3,1,-6,-10,
CCOc1cc(/C=C(\C#N)C(=O)NCC2CCCO2)ccc1OCC(N)=O (stereo unspecified),i,8,42,-81,-3,4,·,0,
CC(=O)c1cccc(NC(=O)CSc2nc(N3CCOCC3)nc(N3CCOCC3)n2)c1,i,-6,-2,·,1,8,-9,-10,
COc1nc(Oc2ccc(/C=N/O)cc2)nc(N(C)C)n1,i,7,-3,·,0,2,-15,7,
O=C(Nc1nc2ccccc2s1)Nc1ccc([N+](=O)[O-])cc1Cl,i,-11,-8,·,·,·,·,10,
COc1ccc(-c2cc3c(=O)n(CC(=O)NCCN4CCCC4)nc(C)n3n2)cc1,i,-1,-3,-7,0,2,1,-7,
CCn1c(=O)c(=O)[nH]c2c(=O)oc3ccc(S(=O)(=O)Nc4ccc(OC)cc4)cc3c21,i,-6,24,-3,2,2,-1,18,
Cc1nc(C(=O)N(C)C)nn1-c1ccc([N+](=O)[O-])cc1,i,3,-14,-2,0,3,·,-16,
N#CCCn1c(O)c(N=NC(=O)CNC(=O)c2cccs2)c2ccccc21,i,2,2,1,1,1,5,-1,
Cc1ccc2cc(C#N)c(N3CCCN(C(=O)c4cnccn4)CC3)nc2c1,i,4,-3,-1,-4,0,·,·,
CC(=O)N1CCc2c(sc(NC(=O)c3ccc(S(=O)(=O)N(C)CC4CCCO4)cc3)c2C(N)=O)C1 (stereo unspecified),·,·,·,-12,-1,2,3,·,
Fc1ccc(/C=N/NC(=S)Nc2cccnc2)cc1F,i,33,6,-16,1,5,·,·,
Clc1ccc(N/N=C/c2ccncc2)cc1Cl,i,1,4,-68,-4,-3,·,·,
CCOC(=O)c1cccc(Nc2ncnc3ccccc23)c1,i,-7,5,·,0,-11,-20,-15,
O=C(N/N=C/C=C/c1ccccc1)c1ccc(Br)cc1,i,4,-8,·,2,1,-13,8,
Clc1ccc(Cn2cccn2)cn1,i,2,1,-2,-2,-4,·,8,

# Random draw from the library. Share with any hit: about 2.9%.
